Assay outcomes deposited in PubChem BioAssay by National Center for Advancing Translational Sciences (NCATS).
TRPML1 ag – qHTS for Agonists of the Human Mucolipin Transient Receptor Potential 1 (TRPML1) | TRPML1-expressing cells, Ca2+ dye fluorescence, FDSS; host cell line not named in the record; reference of the full effect not given here | hit rate 0.12% among 410,000 | activation, % (test concentration not listed) | Mucolipin-1 (Homo sapiens), Q9GZU1; in the data active = activation above about 50%; inconclusive = about 30% to 50%; inactive = below about 30%; note: 0% is about no effect; the text of the record puts the active cut at 80%
Target sequence (Q9GZU1 whole entry, looked up): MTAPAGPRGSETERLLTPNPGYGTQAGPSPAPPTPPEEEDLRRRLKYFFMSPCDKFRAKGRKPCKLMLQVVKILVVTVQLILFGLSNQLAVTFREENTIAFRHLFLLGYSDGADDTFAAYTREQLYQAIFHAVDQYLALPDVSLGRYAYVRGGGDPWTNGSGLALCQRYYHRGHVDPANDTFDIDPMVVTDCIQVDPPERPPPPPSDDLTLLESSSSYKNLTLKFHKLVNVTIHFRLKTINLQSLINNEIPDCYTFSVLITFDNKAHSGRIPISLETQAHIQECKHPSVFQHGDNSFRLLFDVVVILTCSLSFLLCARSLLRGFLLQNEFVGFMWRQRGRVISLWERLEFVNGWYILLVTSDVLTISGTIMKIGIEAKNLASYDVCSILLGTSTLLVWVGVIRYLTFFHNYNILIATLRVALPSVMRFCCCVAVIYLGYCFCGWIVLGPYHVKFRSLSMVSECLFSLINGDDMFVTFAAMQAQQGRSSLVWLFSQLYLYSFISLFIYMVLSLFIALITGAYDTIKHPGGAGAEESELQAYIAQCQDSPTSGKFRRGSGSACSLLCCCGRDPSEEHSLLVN
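Cells: TRPML1-DL, 1X Tet inducer, ~16 h at 37 degrees C/5% CO2. Dye: ABD Ca8 no-wash + quencher, 45-90 min RT. Read: 10 s baseline, compound add, 110 s agonist phase; 54-4 EC80 (4uM final), 110 s antagonist phase.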
PINK1 modulator – A Quantitative High throughput Screen to Identify Chemical Modulators of PINK1 Expression | Potency, µM (doses to about 76.6 µM), for the others: at the top dose activation (PINK1 increase), actives largely listed as activators | hit rate 0.2% among 410,000 | PINK1 immunofluorescence, high-content cytometry, 24 h; active = well fitted activation curve with a large enough effect; inconclusive = small, poorly fitted or top-dose-only effect; inactive = flat fitted curve, though single readings scatter; cell line not stated here;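 note: potency is the fitted concentration of half-maximal effect; % of control where 0% means no effect; nearly all actives have a fitted effect of over 65% in size; a mitochondrial uncoupler was the plate control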
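Readout is PINK1 immunofluorescence, quantified alongside mitochondrial, cell and nuclear markers by laser-scanning microplate cytometry. Cells from a stable line were exposed to compound titrations (5 concentrations) for 24 hours, with CCCP controls.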
ClpP mod – qHTS Assay for Activators of ClpP; ATP-dependent Clp protease proteolytic subunit (Bacillus subtilis (strain 168)), P80244; purified B. subtilis ClpP, FRET peptide cleavage, 20 min; Potency, µM (top dose mostly 57.5 µM), without a hit: at the top dose activity change, negative = active; hit rate 1.9% among 340,000; AID 651965, 2013; active = well fitted falling curve with a large enough effect; inconclusive = small, poorly fitted or top-dose-only effect; inactive = no such curve, though single readings can be large or run the other way; note: potency is the fitted concentration of half-maximal effect; the source files actives as falling curves though it sought activators and does not explain the sign; nearly all actives have a fitted effect of over 65% in size; many hits overshoot -100%
Target sequence (P80244 whole entry, looked up): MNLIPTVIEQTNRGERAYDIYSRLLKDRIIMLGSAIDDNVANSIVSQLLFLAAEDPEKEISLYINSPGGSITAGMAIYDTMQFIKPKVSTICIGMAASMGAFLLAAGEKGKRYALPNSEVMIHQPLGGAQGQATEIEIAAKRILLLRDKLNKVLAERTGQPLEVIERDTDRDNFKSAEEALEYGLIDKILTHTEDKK
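ClpP 10 microg/mL final, pH 8 Tris/KCl buffer with BSA, glycerol, Tween-20; compound pinned in; FRET-FV substrate; RT 20 min; Ex320/Em430; ΔFRET vs ADEP 5.8 microM, DMSO, no enzyme.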
Menin MLL FP FL – qHTS Assay for Inhibitors Targeting the Menin-MLL Interaction in MLL Related Leukemias: Competition With Fluorescein Labeled MLL-derived Peptide | FP activity change, % at 61.4 µM | AID 1766, 2009 | Fluorescence polarization, fluorescein-MLL peptide displacement from menin | 290,000 tested, under 10 active; inconclusive = falling polarisation curve, or a change in total fluorescence; inactive = total fluorescence flat and polarisation flat or rising; no compound was filed as active; the % refers to the polarisation; negative = inhibition;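 note: % of control where 0% means no effect; inhibitors lower the polarisation; unlabelled MLL peptide was the positive control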
Sfp PPTase inh – qHTS Assay for Inhibitors of Bacillus subtilis Sfp phosphopantetheinyl transferase (PPTase); 4'-phosphopantetheinyl transferase ffp (Bacillus subtilis), Q9F4F7; Biochemical Sfp PPTase activity, qHTS; Potency, µM, for inactives: max response, negative = inhibition, hits mostly inhibitors; hit rate 3.5% among 310,000; AID 1490, 2009; active = well fitted inhibition curve with a large enough effect; inconclusive = small, poorly fitted or top-dose-only effect, or another doubt; inactive = no such curve, though single readings can be large or run the other way;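 note: the enzyme is Sfp with the accession as filed and its product quenches rhodamine fluorescence; potency is the fitted concentration of half-maximal effect; 0% = enzyme reaction without inhibitor and -100% = no enzyme wells; top concentration of the series not given in the record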
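Compounds were incubated with enzyme (final 15 nM) for 15 min at room temperature before substrate addition started the reaction. Fluorescence at 525 nm excitation, 598 nm emission was recorded immediately and after 30 minutes.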
TRPML1 blocker – qHTS for Inhibitors of the Human Mucolipin Transient Receptor Potential 1 (TRPML1) | Mucolipin-1 (Homo sapiens), Q9GZU1 | hit rate 0.02% among 390,000 | TRPML1-inducible cells, Ca2+ dye fluorescence, FDSS; hits give low values; inhibition of EC80 agonist-evoked calcium signal | activity change, negative = inhibition, % (no concentration beside the values); in the data active means activity change below about -50%; inconclusive means about -30% to -50%; inactive means above about -30%;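 note: stimulus is agonist 54-4 at its EC80 concentration; % is set by controls: 0 for no effect and ±100 for the full control effect; compound concentration not given in the record; the text of the record puts the active cut at -80%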
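Calcium fluorescence in TRPML1-DL cells induced overnight with Tet: a 110 s read after compound pin addition, then a 110 s antagonist read after challenge with 54-4 at 4 uM final (EC80).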
TRPV1 PAM – HTS Assay for Compounds that Act as Potentiators of the Vanilloid Receptor 1; hit rate 0.02% among 320,000; TRPV1-expressing cells, Fluo-8 calcium influx, capsaicin EC20 potentiation; host cell line not named in the record; control for the full effect not named in the record; Transient receptor potential cation channel subfamily V member 1 (Homo sapiens), Q8NER1; potentiation, % at 8.33 µM; active means potentiation above 80%; inconclusive means 30% to 80%; inactive means below 30%; note: 0% is about no effect
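Cells expressing TRPV1 were dye-loaded with Fluo-8 and read kinetically: 10 s baseline, 3 min after compound (agonist portion), then 2 min after EC20 capsaicin (allosteric enhancer portion). Calcium-bound dye fluorescence at 480/520 nm.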
Starred values were filed as active, the others as inactive; ? = inconclusive; . = no result given; [ ] = dose if it differs, or a comment.

SMILES	TRPML1 ag	PINK1 modulator	ClpP mod	Menin MLL FP FL	Sfp PPTase inh	TRPML1 blocker	TRPV1 PAM
NC(=O)COc1ccc2c3c(c(=O)oc2c1)CCCCC3	-0.2	-5.9%[38.3 µM]	90%	-3.2	-3%	16	9
CC(c1nc2ccccc2n1Cc1ccccc1)N1CCCCC1 (centres undefined)	-0.8	7.8%	.	-12	-1%	-2	9
CCC(C)c1ccc(NC(=O)c2[nH]c(C)c(C(C)=O)c2C)cc1 (centres undefined)	1.9	22%	.	-0.2	2%	15	6
Cc1c(C2CC(=O)N(c3ccccc3)C2=O)[nH]n(-c2ccccc2)c1=O (centres undefined)	-0.3	0.9%	0.5%	5.3	3%	0	4
CCOc1ccc(N(CC(=O)N2CCCC2)S(=O)(=O)c2ccc(Cl)cc2)cc1	0.8	-3.2%	.	.	6%	-2	-7
CN(C)C(=O)c1ccc(-n2cnc3ccccc3c2=O)cc1	-0.3	0.7%	1.4%	0.9	18%	0	4
CN(C)/C=N/c1cnc(C(=O)c2ccc(Cl)cc2)n1C	0.0	3.1%	-2.1%	2.2	-6%	16	8
CN(C)Cc1nc2c(c(=O)[nH]1)C1(CCCCC1)Cc1ccccc1-2	0.9	.	-2.0%	-0.7	-23%	15	-11
Clc1ccc2nc(NCc3ccccc3)c3nncn3c2c1	-0.4	0.2%	-4.8%	.	.	-4	.
O=C(O)[C@@H]1CCCN1C(=O)COc1ccc2c3c(c(=O)oc2c1)CCC3	.	-1.1%	5.2%	-3.4	14%	.	4
C=CCNc1nc(C(F)(F)F)nc2c1nnn2Cc1ccccc1Cl	1.7	17%	-1.2%	-0.5	10%	-14	-55
CCOC1OC(=O)C(Cl)=C1Nc1ccc(C)cc1C (centres undefined)	-0.3	0.8%	-3.3%	1.8	20%	11	?
COc1ccccc1Oc1nc(-c2cccnc2)nc2ccccc12	1.1	-1.6%	.	1.1	-14%	-5	-5
COc1ccc(Cc2nc3ccc(C(=O)N4CCCCC4CO)cc3o2)cc1OC (centres undefined)	0.0	1.7%	-0.2%	.	.	18	.
COc1ccc(CCNC(=O)c2ccc3nc(N4CCOCC4)sc3c2)cc1OC	0.4	1.0%	-9.0%	-2.1	1%	1	22
Cc1cc(=O)oc(C)c1C(=O)n1nc(C)c2c1C[C@@H]1[C@H]2C1(C)C	-0.5	-0.9%	-1.2%	1.3	-5%	-2	4
COc1ccc(C2CC2C(=O)c2ccccn2)cc1 (centres undefined)	1.2	3.6%	.	-4.6	9%	5	-5
CCOc1cccc(C(=O)Nc2ccccc2N2CCN(C(=O)C(C)C)CC2)c1	0.3	1.6%	0.3%	3.6	-16%	14	-25
Cc1cc(C)cc(N(CCC#N)C(=O)COC(=O)c2nc3nc(C)cc(C)n3n2)c1	0.2	-2.7%	-2.1%	.	.	21	-20
Cc1ccc2nc(-c3ccc(C)o3)c(NC3CCCC3)n2c1	-0.4	-0.3%	4.5%	.	.	.	.
COc1cccc(OCc2cc(C(=O)NCc3ccc4c(c3)OCO4)no2)c1	1.6	0.2%	0.3%	.	6%	22	-14
CCc1c(O)nc(SCC(=O)Nc2nc3ccccc3s2)n(-c2ccccc2)c1=O	-0.3	-2.6%	-1.4%	2.8	-8%	-9	10
CC1(C)C(=O)Nc2ccccc2N1C(=O)COC(=O)c1ccc(NC(N)=O)cc1	0.4	0.9%	.	.	.	-1	27
CSCC(=O)N1CCC(Oc2cccc(C(=O)NCc3ccccn3)c2)CC1	-0.9	0.9%	-0.2%	-0.9	10%	3	-4
COc1ccccc1-c1noc2ncnc(Nc3cccc(C)c3C)c12	0.7	1.5%	-7.7%	1.4	-9%	-15	-4
CN(C)c1ccc(NC(=O)/C=C/c2ccccc2Cl)cc1	1.3	?	-1.8%	1.8	1%	-7	-9
O=C(NCc1ccccc1F)C12CC3CC(CC(C3)C1)C2	1.9	0.8%	.	.	.	13	.
CSc1ccccc1C(=O)NC1CCCCCC1	-0.1	1.4%[38.3 µM]	-1.1%	5.0	-1%	5	4
Cc1nn(-c2ccccc2)c(N)c1Sc1cccc([N+](=O)[O-])c1	1.0	2.4%	1.2%	4.8	-8%	7	3
Cc1noc(C)c1COc1ccccc1C(=O)NCc1ccco1	-1.8	0.8%	-2.6%	.	.	-12	-10

An excerpt of these results, with each value named:
COc1ccc(C2CC2C(=O)c2ccccn2)cc1 (centres undefined)
  TRPML1 ag: 1.2
  PINK1 modulator: 3.6%
  ClpP mod: .
  Menin MLL FP FL: -4.6
  Sfp PPTase inh: 9%
  TRPML1 blocker: 5
  TRPV1 PAM: -5
CCOc1cccc(C(=O)Nc2ccccc2N2CCN(C(=O)C(C)C)CC2)c1
  TRPML1 ag: 0.3
  PINK1 modulator: 1.6%
  ClpP mod: 0.3%
  Menin MLL FP FL: 3.6
  Sfp PPTase inh: -16%
  TRPML1 blocker: 14
  TRPV1 PAM: -25

The results go on:
SMILES	TRPML1 ag	PINK1 modulator	ClpP mod	Menin MLL FP FL	Sfp PPTase inh	TRPML1 blocker	TRPV1 PAM
Clc1ccccc1-c1cnc2sc(NCc3ccc4c(c3)OCO4)nn12	0.2	5.8%	-0.2%	.	.	2	.
CC(C)c1ccc(NC2CCCN(C(=O)CCc3cnn(C)c3)C2)cc1 (centres undefined)	-0.3	-0.5%	1.3%	.	7%	-15	-11
Cc1nc(NCCc2ccc(S(N)(=O)=O)cc2)c2c3c(sc2n1)CCC3	1.3	-0.9%[38.3 µM]	-8.4%	6.8	10%	2	-3
O=C(CSc1ccccc1)Nc1ccc(-c2nc3ccccc3[nH]2)cc1	1.5	1.6%	-1.0%	1.3	0%	-19	-22
COc1ccc(NC(=O)c2cc(C3CC3)nc3c2c(C)nn3-c2ccccc2)cc1	0.5	-0.1%	182%	.	.	-18	.
CCOC(=O)Cc1csc(NC(=O)c2csc3c2CCCC3)n1	1.2	9.8%[38.3 µM]	-1.5%	1.9	-17%	0	-2
Cc1ccncc1CNC(=O)c1ccccc1	-0.1	-0.1%	.	.	.	-9	.
CCC(=O)Nc1c(C)n[nH]c1C	1.5	0.0%	-2.8%	1.7	-24%	11	11
COc1cc(/C=C/C(=O)NC(=O)c2ccccc2O)ccc1OC(C)=O	.	1.0%	-3.0%	17	16%	.	3
COC(=O)c1cn(NC(=O)c2ccc([N+](=O)[O-])c(C)c2)c(=O)c2ccccc12	1.9	1.0%	.	-0.3	-1%	-2	-13
C=CCOc1c(CNc2cccc(C(=O)O)c2)cccc1OC	-0.3	1.8%	25µM*	3.7	-4%	4	-6
O=C(O)c1ccc2c(c1)SC1=NS(=O)(=O)CCN12	-0.1	3.2%	0.9%	1.2	7%	-15	1
O=C(OCc1ccccc1)N1CCc2ccccc21	2.8	5.2%	-2.0%	0.0	15%	10	18
CCc1c(C)sc(NC(=O)C2CC2)c1C(=O)OC(C)C	-0.5	12%	-26%	9.3	0%	10	-9
OCCNCC(O)CN1c2ccccc2Sc2ccccc21 (centres undefined)	0.0	2.5%	0.2%	0.9	8%	-3	-1
Cn1c(-c2ccc(CN3CCCCC3)o2)nc2ccccc21	0.4	2.1%	3.5µM*	10	2%	-10	12
CCCOc1nnnn1-c1ccccc1	0.0	-1.5%	-0.5%	-0.5	7%	4	8
O=C(O)c1ccc2c(c1)S(=O)(=O)N=C1CCCCCN12	0.2	-2.4%	.	-2.8	9%	14	-2
Ic1ccc(Nc2nc(NCCN3CCOCC3)nc(N3CCOCC3)n2)cc1	-1.0	1.0%	1.2%	.	.	.	.
COc1ccc2nc(N3C(=O)CC(C(C)c4ccccc4)C3=O)sc2c1 (centres undefined)	1.0	0.9%	28µM*	8.0	9%	25	6
CS(=O)(=O)N1CCN(c2ccccc2NC(=O)c2cccnc2)CC1	-1.1	-0.1%	1.0%	-3.1	5%	-20	?
COc1cc(C)c(Cl)cc1S(=O)(=O)N1CCCC1	0.8	-1.6%	.	-3.5	-4%	25	4
COc1ccccc1CNC(=O)CSc1ncc2c(n1)-c1ccc(Cl)cc1N(Cc1ccccc1)S2(=O)=O	-0.6	0.3%	7.8%	.	.	-9	.
CCN1CCc2c(OCC(=O)Nc3ccc(C)cc3)cccc2C1=O	1.5	-0.9%	-0.6%	.	7%	-13	-5
Cc1cc(NC(=O)COC(=O)[C@@H](NS(=O)(=O)c2ccc(Br)cc2)C(C)C)no1	.	-0.2%	-1.0%	-3.0	8%	.	6
CC(C)(C)n1cn[nH]c1=S	1.0	-1.3%	.	3.3	-19%	-3	17
O=C(Nc1ccc(OC(F)(F)F)cc1)c1ccc2ccccc2n1	0.7	5.3%	.	2.7	3%	4	-1
COc1ccc2oc(=O)c(C(=O)O)cc2c1	0.6	?	20µM*	-5.0	-12%	2	7
Cc1n[nH]c(=O)nc1NCc1ccc(Cl)cc1	0.7	-0.5%	-1.9%	-0.4	?	-1	?
CC(C)CNC(=O)c1c(-c2ccccc2)c(-c2ccccc2)nn(C)c1=O	1.9	-0.5%	0.9%	.	.	8	.
CC(CS(=O)(=O)c1ccc2c(c1)NC(=O)CS2)C(=O)NCc1ccccc1Cl (centres undefined)	-0.6	-1.0%	-1.4%	12	-1%	8	-1
Cc1c(C(=O)NCc2ccc3c(c2)OCO3)sc2nc(-c3ccc(F)cc3)cn12	2.2	2.8%	-4.7%	-0.8	13%	23	-4
CC(O)(c1cccnc1)c1nc(-c2cccc(C(F)(F)F)c2)cs1 (centres undefined)	0.2	2.1%	-0.7%	.	.	.	.

Among those listed so far, 3 contain a CF3 group.
SMILES	TRPML1 ag	PINK1 modulator	ClpP mod	Menin MLL FP FL	Sfp PPTase inh	TRPML1 blocker	TRPV1 PAM
C=CCNc1nc(C(F)(F)F)nc2c1nnn2Cc1ccccc1Cl	1.7	17%	-1.2%	-0.5	10%	-14	-55
O=C(Nc1ccc(OC(F)(F)F)cc1)c1ccc2ccccc2n1	0.7	5.3%	.	2.7	3%	4	-1
CC(O)(c1cccnc1)c1nc(-c2cccc(C(F)(F)F)c2)cs1 (centres undefined)	0.2	2.1%	-0.7%	.	.	.	.
